# CDC25B CDK2 inh = primary biochemical HTRF screen for blockers of M-phase inducer phosphatase 2 binding to CDK2/cyclin A | P30305+P24941 | HTRF CDC25B-CDK2/CyclinA binding, anti-His/anti-Flag; hits give high values | z-score (test concentration not listed) | 0.72% of 94,000 active;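 further: score is relative to mean and SD of negative controls; strong numbers were not always called active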
# HIV TAR-Tat = TAR RNA-Tat peptide displacers, HIV-1, primary screen, biochemical, FRET, FAM/TAMRA-labeled Tat; HIV-1 TAR RNA, Tat peptide displacement FRET; hits give high values; z-score (test concentration not listed); 0.6% of 100,000 active; AID 1259389, 2018;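 further: score is relative to mean and SD of negative controls; some compounds called inactive have numbers as strong as hits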
# An asterisk follows results filed as active; / = no result given.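 How the source made its calls: active means z-score from 3 up in half or more of its runs; inactive means the rest.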
SMILES,CDC25B CDK2 inh,HIV TAR-Tat
CC(C)(C)OC(=O)C1C(=O)CC(C)(O)C(C(=O)OC(C)(C)C)C1c1ccc(F)cc1 (centres undefined),-0.63,-0.15
CCC(C)Cn1c(C(O)CC)nc2ccccc21 (centres undefined),-1.5,-0.76
Cc1ccc(-c2ccc(=O)n(C(C)C(=O)N3CCc4ccccc43)n2)cc1S(=O)(=O)N1CCCC1 (centres undefined),-0.59,0.31
Cc1cc(C)c(C)c(C(=O)COC(=O)CNC(=O)CNC(=O)c2ccco2)c1C,-2.5,/
O=C(c1ccco1)N1CCN(c2ccc(C(F)(F)F)cn2)CC1,-1.3,/
Cc1nc(N(C)C)cc(N2CCN(S(=O)(=O)c3cc(C(C)C)ccc3C)CC2)n1,-0.01,0.82
CC(CS(=O)(=O)c1ccc2c(c1)NC(=O)C(C)S2)C(=O)Nc1cccc2c1CCCC2 (centres undefined),/,-0.96
O=C(COc1ccccc1)Nc1c(C(=O)N2CCN(c3ncccn3)CC2)oc2ccccc12,/,2.5
Cn1ncc([N+](=O)[O-])c1C(=O)Nc1ccccc1Cl,-2.7,1.1
CCCNC(=O)c1cnc(N2CCCC2)nc1,-0.7,0.86
CCOc1ccc(NC(=O)C(C)Sc2nc3c(c(=O)[nH]2)CCC3)cc1 (centres undefined),-0.53,-0.47
C/C(=N\NC1=NCCN1)c1ccc(Br)cc1,-1.1,/
O=C(O)c1ccc(N2CN(Cc3ccccc3)CC(c3ccc([N+](=O)[O-])o3)=N2)cc1,-1.4,1.3
CCC(C)Nc1ncnc2c1cnn2-c1ccc(F)cc1 (centres undefined),/,0.97
Cc1ccc2c(c1)c1c(n2CCC#N)C(=O)CCC1,0.1,/
CCc1ccccc1-n1nnc(-c2nc(-c3ccccc3)no2)c1N,/,0.14
O=c1c2c(nc3nc(NCc4c(F)cccc4Cl)[nH]n13)CCC2,-0.27,2.4
CC1=Nc2cc(C(=O)O)ccc2Sc2c(C)ccc(C)c21,/,0.8
Cc1cc(C)cc(NC(=O)CCS(=O)(=O)c2ccc3c(c2)NC(=O)C(C)S3)c1 (centres undefined),/,1.6
O=C(O)CC1(CC(=O)Nc2cccc3nonc23)CCCCC1,-2.7,/
CCOC(=O)c1[nH]c(C)c(CC)c1C,-1.4,2.2
CCN(CC)c1cc(C)nc2nc(-c3ccccc3C)nn12,-0.78,2.2
Cc1cc(C)cc(Cc2cnc(NC(=O)C3=Cc4ccccc4OC=C3)s2)c1,-1.7,-1.3
COc1cc(C=Nc2ccccc2C(=O)O)cc(OC)c1OC,-0.83,/
CCC(C)NC(=O)c1cc(S(=O)(=O)N2CCCC2)cn1C (centres undefined),/,2.4
O=C(O)C1CCCN1C(=O)Nc1cccc(F)c1 (centres undefined),-0.85,0.96
CSc1nc2ccc(NC(=O)c3c(-c4ccccc4)noc3C)cc2s1,-0.44,/
COC(=O)c1ccc2c(=O)n3nc(NCCc4ccccc4)sc3nc2c1,/,1.4
CCOc1ccc(/C=C/c2nc(C#N)c(NCc3ccc(OC)cc3)o2)cc1,0.5,1.6
Cc1ccccc1C1NC(=S)NC2=C1C(=O)CC(C)(C)C2 (centres undefined),0.76,/
CN(C)/C=N/NC(=O)c1nc(-c2cccc(-n3cccc3)c2)no1,-2.3,/
Cc1ccc(/C=C2\SC(=S)N(CCC(=O)Nc3ccc(S(=O)(=O)Nc4nccs4)cc3)C2=O)cc1,-0.82,/
O=C1CC(c2ccc(-c3ccccc3)cc2)c2cc3c(cc2N1)OCCO3 (centres undefined),0.36,1.2
COc1cc(C#N)c(OC)cc1Cl,-1.6,/
COc1ccc(Cl)cc1Nc1ncnc2c1nc1n2CCCC1,/,-0.53
CC1=C(c2ccccc2)S(=O)(=O)N=C1N1CC(C)CC(C)C1 (centres undefined),0.86,0.92
CN1CCN(C(=O)c2cnn3c2NC(c2ccc(Br)cc2)CC3C(F)(F)F)CC1 (centres undefined),0.44,0.37
CC1CCCCN1C(=O)CSc1nc(-c2ccco2)nc2cc(=O)[nH]n12 (centres undefined),/,1.2
COc1ccc(OC)c(S(=O)(=O)NCCc2csc(-c3ccc(Cl)cc3)n2)c1,/,-0.96
COC(=O)c1c(C)oc2cc(Br)c(OCc3cccc(F)c3)cc12,-0.93,-1.6
O=C(Nc1ccc2c(c1)OCCO2)c1cccc(-n2cnnc2)n1,/,2.5
COc1ccc(C(=O)Cn2c(=O)c(CCC(=O)O)nn3c4ccccc4nc23)cc1OC,-0.75,/
O=C1c2[nH]nc(-c3ccccc3O)c2C(c2ccc(Cl)cc2)N1CCO (centres undefined),-1.2,-0.31
COc1ccc(OC)c(Nc2nc3ccc(C)cc3n3nnnc23)c1,/,0.19
Clc1ccc(-c2nn3c(C4COc5ccccc5O4)nnc3s2)cc1 (centres undefined),-2.2,1.6
CCCC[S@](=N)(=O)CC[C@H](N)C(=O)O,-2,0.64
COc1cccc(Cn2cc3c(-c4ccccc4)nnc-3c3cc(OC)c(OC)cc32)c1,-2.6,0.02
Cc1ccc(Cn2c(C)c3cnn(CC(=O)NCc4ccc5c(c4)OCO5)c(=O)c3c2C)cc1,-0.43,0.87
CN1C(=O)c2ccccc2C(C(=O)NC2CCCCC2)C1c1cccs1 (centres undefined),-1.8,0.95
O=C(NCc1ccccc1)NC1(C(F)(F)F)Oc2ccc(Cl)cc2O1 (centres undefined),2.6,/
O=C(CCC(=O)N1CCc2cc(S(=O)(=O)N3CCc4ccccc4C3)ccc21)N1CCCCC1,/,-0.16
CS(=O)(=O)Nc1nc2ccc(NC(=O)c3cc(-c4cccs4)[nH]n3)cc2s1,/,1.5
CC1=C(C(=O)OC(C)C)C(c2cccnc2)n2ncnc2N1 (centres undefined),1.6,0.25
O=c1c2nccnc2nc(SCc2ccc(Cl)cc2)n1Cc1ccc(F)cc1,/,-0.2
Cn1c(SCc2cc(=O)n3ccsc3n2)nnc1-c1ccccc1,/,0.33
Cn1cnc(S(=O)(=O)Nc2ccccc2)c1,/,0.86
CC(C)C1C(=O)Nc2ccc(S(=O)(=O)N(C)Cc3ccccc3)cc21 (centres undefined),/,0.82
OCCCNNC(=S)Nc1ccc(Cl)cc1Cl,0.06,/
O=C(NCc1ccncc1)c1ccc([N+](=O)[O-])o1,-3.3,1.3
CC(C)OP(=O)(OC(C)C)/C(=N/NC(=O)c1ccccc1)NO,-2.1,/

# Not a retest: 17 of the compounds above.
SMILES,CDC25B CDK2 inh,HIV TAR-Tat
COc1ccc(OC)c(Nc2nc3ccc(C)cc3n3nnnc23)c1,/,0.19
Clc1ccc(-c2nn3c(C4COc5ccccc5O4)nnc3s2)cc1 (centres undefined),-2.2,1.6
CCCC[S@](=N)(=O)CC[C@H](N)C(=O)O,-2,0.64
COc1cccc(Cn2cc3c(-c4ccccc4)nnc-3c3cc(OC)c(OC)cc32)c1,-2.6,0.02
Cc1ccc(Cn2c(C)c3cnn(CC(=O)NCc4ccc5c(c4)OCO5)c(=O)c3c2C)cc1,-0.43,0.87
CN1C(=O)c2ccccc2C(C(=O)NC2CCCCC2)C1c1cccs1 (centres undefined),-1.8,0.95
O=C(NCc1ccccc1)NC1(C(F)(F)F)Oc2ccc(Cl)cc2O1 (centres undefined),2.6,/
O=C(CCC(=O)N1CCc2cc(S(=O)(=O)N3CCc4ccccc4C3)ccc21)N1CCCCC1,/,-0.16
CS(=O)(=O)Nc1nc2ccc(NC(=O)c3cc(-c4cccs4)[nH]n3)cc2s1,/,1.5
CC1=C(C(=O)OC(C)C)C(c2cccnc2)n2ncnc2N1 (centres undefined),1.6,0.25
O=c1c2nccnc2nc(SCc2ccc(Cl)cc2)n1Cc1ccc(F)cc1,/,-0.2
Cn1c(SCc2cc(=O)n3ccsc3n2)nnc1-c1ccccc1,/,0.33
Cn1cnc(S(=O)(=O)Nc2ccccc2)c1,/,0.86
CC(C)C1C(=O)Nc2ccc(S(=O)(=O)N(C)Cc3ccccc3)cc21 (centres undefined),/,0.82
OCCCNNC(=S)Nc1ccc(Cl)cc1Cl,0.06,/
O=C(NCc1ccncc1)c1ccc([N+](=O)[O-])o1,-3.3,1.3
CC(C)OP(=O)(OC(C)C)/C(=N/NC(=O)c1ccccc1)NO,-2.1,/

# Next compounds.
SMILES,CDC25B CDK2 inh,HIV TAR-Tat
Fc1cccc(Cl)c1CSc1nnc([C@@H]2CCCN2)o1,-0.18,-1.4
Cc1sc2c(c1C)CSC(C(=O)N1CCN(c3ccccn3)CC1)=C2,/,-2.2
COC1=C(C(=O)c2ccccc2)N(Cc2ccccc2)S(=O)(=O)c2ccccc21,-1.2,0.74
CC(C)c1cc(C2CCCN2C(=O)c2cnn3c(C(F)(F)F)cc(-c4ccccc4)nc23)no1 (centres undefined),/,2
CC(N[C@H]1CS(=O)(=O)C[C@@H]1S(=O)(=O)c1cccs1)c1ccccc1 (some centres undefined),1.5,2.3
Cc1onc(-c2ccccc2Cl)c1C(=O)N(c1ccccc1)C1C=CS(=O)(=O)C1 (centres undefined),-0.01,/
O=C1[C@@H]2CSC(c3ccc(F)cc3)N2C(=O)N1c1ccccc1 (some centres undefined),-3.2,-1.6
CC(=O)c1sc(SCCS(=O)(=O)c2ccccc2)c2c1CC(C)(C)CC2=O,-8.1,/
CCCCC(=O)Nc1nnc(S(=O)(=O)N(C)Cc2ccco2)s1,-0.67,1.4
NNc1ccc(Oc2ccccc2)c(S(=O)(=O)O)c1,-3.1,/
CCOc1ccccc1-c1nn2cnnc2s1,1.2,-0.46
Cc1nn(C(C)(C)C)c(OC(=O)CC(C)C)c1S(=O)(=O)c1ccccc1,-2.8,/
Cc1cc(S(=O)(=O)Nc2ccc3c(c2)N(S(C)(=O)=O)CCC3)ccc1F,/,1.3
Cc1ccc(-c2nc3ncccc3o2)cc1N,-1.4,1
CCn1nc(C)c(CCNS(=O)(=O)c2ccc(C(C)C)cc2)c1C,/,1.3
O=C(Oc1ccc(OC(=O)c2ccncc2)cc1)c1ccncc1,-1.1,0.45
Cc1ccc(CCc2nn3c(COc4ccccc4)nnc3s2)cc1,2.1,-0.3
O=C1NC(=O)C2C1Sc1[nH]c(=O)sc1C2c1ccco1 (centres undefined),1.6,-4.3
Cc1ccc(C2CC(=O)n3nc(-c4ccc(Cl)cc4)nc3S2)cc1 (centres undefined),3,/
CC1CCCC(NC(=O)Nc2cn(C)c(=O)c3ccccc23)C1C (centres undefined),/,-0.49
Cc1ccnc(SCc2cc(=O)n3[nH]c(C)nc3n2)n1,-1.2,0.17
O=C(O)CCCC(=O)Nc1nc2nccc(-c3ccccc3)n2n1,-0.95,0.88
N#C/C(=C\c1ccc([N+](=O)[O-])s1)C(=O)c1ccco1,-1.1,/
CS(=O)(=O)CCC(C(=O)N1CCN(c2ccccc2F)CC1)N1Cc2ccccc2C1=O (centres undefined),/,1.7
CCOC(=O)c1sc(=S)n(-c2ccc(C)cc2)c1N,/,1.4
COC(=O)c1cc(S(=O)(=O)N2c3ccccc3CC2C)c[nH]1 (centres undefined),/,22*
COc1ccc(OC)c(NS(=O)(=O)c2ccc3[nH]c4c(c3c2)CCCC4)c1,/,0.04
CCc1nc2sc3c(c2c(=S)[nH]1)CCCC3,-0.73,/
Cc1ccc(-c2c3c(=O)n(C)c(=O)n(C)c3c3c(C)cc(C)nn23)cc1,-0.01,0.96
O=C1CCC(=O)N1CN(Cc1cccs1)CN1C(=O)CCC1=O,-1.2,/
COc1ccc(C(=O)CC(C(=O)c2ccccc2)c2ccccc2)cc1 (centres undefined),-1.4,/
COC(=O)c1ccccc1NC(=S)NC(NC(=O)C(C)C)C(Cl)(Cl)Cl (centres undefined),-2.4,/
CCCN1CCN(S(=O)(=O)c2ccc(-n3cnnn3)c(C)c2)CC1,2.2,0.84
O=S(=O)(Nc1cccc(-c2ccc(N3CCCC3)nn2)c1)c1ccccc1,/,1.2
CCOC(=O)CC1=NC(=O)CS1,-1.2,/
C(=C\c1nn2c(Cn3nnc4ccccc43)nnc2s1)/c1ccccc1,-0.25,2.2
COc1cccc(OCc2nc3ccccc3n2CCCOc2ccccc2)c1,0.67,0.03
CN(c1ccc([N+](=O)[O-])cc1Cl)C1CCCCC1,-1.3,/
Cc1cc(=O)n2nc(N3CCCC(C(=O)N4CCOCC4)C3)sc2n1 (centres undefined),0.05,3
O=C(Cn1c(=O)c2cccn2c2cccnc21)NCCN1CCCC1,/,-0.23
c1ccc(-n2nnnc2Oc2cccc(CNCc3ccco3)c2)cc1,/,1.2
Nc1cccnc1NC1CCCCC1,/,-6.2
C=CCOc1ccc(C2C(C(=O)OC(C)C)=C(C)N=C3SCCC(=O)N32)cc1OC (centres undefined),-1.3,/
Cc1cccc(NC(=O)Cc2nnc(NC(=O)Nc3ccccc3F)s2)c1,-1.9,/
O=C1CCCC2=C1C(c1cccnc1)c1c(nc(SCc3ccccc3Cl)[nH]c1=O)N2 (centres undefined),-0.2,/
Cc1cc(F)ccc1N1C(=O)c2ccncc2C1=O,/,0.79
CNC(=S)NNC(=O)Cn1ccc(C(F)(F)F)cc1=O,-2.6,/
CCc1nc(SCc2cc(=O)c3c(C)cc(C)cc3[nH]2)n[nH]1,/,-3.1
COc1ccc(C2=NN(C(=O)CSC3=NCCS3)C(c3cccc(OC)c3OC)C2)cc1 (centres undefined),2.3,/
O=C(Cn1ccc2ccccc2c1=O)NCCC(=O)Nc1ccc(Oc2ccccc2)cc1,0.06,/
CCCc1nn2c(=O)cc(CSc3nc4ccccc4[nH]3)nc2s1,-1,1.2
CC(=NCc1ccccc1)c1ccccc1O,-1.1,/
COc1cc(C2C3=C(CC(C)(C)CC3=O)Nc3[nH]c(=S)[nH]c(=O)c32)ccc1OC(C)C (centres undefined),0.35,/
CN(C(=O)Cn1ncc2c([nH]c3ccccc32)c1=O)c1ccccc1Cl,/,0.21
O=C(Nc1ccc(S(=O)(=O)Nc2nccs2)cc1)c1nn(-c2ccccc2)ccc1=O,-1.5,-1.3
CCOC(=O)c1c(NC(=O)c2sc3nc(C)cc(COC)c3c2N)sc2c1CCCC2,-0.42,1

# Shown with two lines to a compound: entries from further up.
# Sequence of screens: CDC25B CDK2 inh	HIV TAR-Tat
CC1CCCCN1C(=O)CSc1nc(-c2ccco2)nc2cc(=O)[nH]n12 (centres undefined)
    /	1.2
O=C(CCC(=O)N1CCc2cc(S(=O)(=O)N3CCc4ccccc4C3)ccc21)N1CCCCC1
    /	-0.16

# Screening results from PubChem BioAssay.
